FGF22 binding: shifts melting point of recombinant human FGF22. Q9HCT0. recombinant FGF22 thermal shift, SYPRO orange fluorescence; percent of sucrose octasulfate shift, DMSO zero. calls only at 9.99 µM. actives 1.5% (n = 340,000). AID 651658;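 active means melting point raised past a set limit in the mean and every replicate; three in four hits are not shown here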
Target sequence (Q9HCT0 whole entry, looked up): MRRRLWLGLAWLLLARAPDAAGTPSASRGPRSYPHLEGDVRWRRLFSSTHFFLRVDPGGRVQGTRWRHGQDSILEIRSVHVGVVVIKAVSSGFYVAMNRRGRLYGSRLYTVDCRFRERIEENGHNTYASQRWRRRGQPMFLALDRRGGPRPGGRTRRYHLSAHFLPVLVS
MLL AF4-AF9 inh: inhibitors of human MLL-AF4/AF9 interaction | actives 0.47% (n = 350,000) | AID 651704 | AlphaScreen, biotin-AF4 peptide binding to FLAG-AF9 | inhibition, % at 10 µM;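 active means every replicate reaching a set inhibition limit, whatever the replicate mean, cut at about 25% in these data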;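 further: 0% = plate neutral control median and 100% = total signal loss; the record names both 10 and 1 µM as test concentration; the first replicate is given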
Target sequence (P42568 whole entry, looked up): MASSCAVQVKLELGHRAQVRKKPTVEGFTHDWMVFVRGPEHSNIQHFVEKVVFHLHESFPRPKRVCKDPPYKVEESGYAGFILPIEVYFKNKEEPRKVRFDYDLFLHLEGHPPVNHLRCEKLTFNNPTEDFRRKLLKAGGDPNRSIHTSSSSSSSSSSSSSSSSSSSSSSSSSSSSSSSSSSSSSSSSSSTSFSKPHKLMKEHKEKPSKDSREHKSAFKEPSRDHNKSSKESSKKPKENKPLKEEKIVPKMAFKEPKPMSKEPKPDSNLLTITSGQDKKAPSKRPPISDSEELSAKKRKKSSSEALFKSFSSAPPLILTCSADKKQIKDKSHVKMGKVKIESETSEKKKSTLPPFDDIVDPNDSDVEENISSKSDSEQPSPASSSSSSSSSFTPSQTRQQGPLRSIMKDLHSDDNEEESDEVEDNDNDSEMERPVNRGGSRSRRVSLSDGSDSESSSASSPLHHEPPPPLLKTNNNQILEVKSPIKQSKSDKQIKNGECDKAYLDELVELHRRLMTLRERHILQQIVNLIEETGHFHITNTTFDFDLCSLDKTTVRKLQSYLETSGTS
rRNA inh HTS: inhibitors of bacterial rRNA selective over humanized ribosomes; E. coli WT GFP vs humanized-ribosome RFP mutants, fluorescence, 24 h; hits give low values; DMSO median 0, no signal -100; GFP signal change (wild-type ribosome), % (no concentration beside the values); actives 1.6% (n = 350,000); AID 720706;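 active means significant combined selectivity score with lowered wild-type GFP, culture density cut under 30%, mutant RFP and density less affected; inactive means any of these conditions unmet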; further: one replicate is shown; some compounds called inactive have numbers as strong as hits
rRNA inh HTS OD600: recorded beside rRNA inh HTS, whose call it bears; OD600 change, %; measured here: OD600 growth;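 optical density of the mix in the first replicate; 0 = DMSO median and -100 = no signal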
rRNA inh HTS RFP: also measured in rRNA inh HTS; calls as there; RFP signal change, %; measured here: RFP humanized mutant strains;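 first replicate; 0 = DMSO median and -100 = no signal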
* marks the source's active call; other numbers are inactive results; i = inactive; & = joins results of further samples. Some of the compounds tested. The share of hits here may be higher or lower than overall.

Compound	FGF22 binding	MLL AF4-AF9 inh	rRNA inh HTS	rRNA inh HTS OD600	rRNA inh HTS RFP
C[C@H](CO)N1C[C@H](C)[C@H](CN(C)Cc2ccc(C(=O)Nc3ccccc3N)cc2)Oc2ccc(NS(=O)(=O)c3ccccc3)cc2CC1=O	i	-1.0	-3	-3	1.9
O=C(c1ccncc1)N1CC2(C1)[C@@H](c1ccccc1)[C@@H](CO)N2C(=O)CC1CC1	i	-2.0	3	6	-2.0
C[C@@H]1CCCCO[C@@H](CN(C)S(C)(=O)=O)[C@H](C)CN([C@@H](C)CO)C(=O)c2cc(NS(=O)(=O)c3cn(C)cn3)ccc2O1	i	-0.1	3	8	-0.9
CCCN1C[C@H](C)[C@H](OC)CN(C)C(=O)c2ccc(NC(=O)Nc3cccc(F)c3)cc2OC[C@@H]1C	i	4.8	0	-9	-0.6
Cc1ccnc(NC(=O)c2cccc(NC(=O)c3ccc(Cl)c(Cl)c3)c2)c1	i	0.5	11	10	6.2
CCCNC(=O)C[C@@H]1C[C@@H]2c3cc(NC(=O)Nc4ccc(F)cc4)ccc3O[C@@H]2[C@H](CO)O1	i	0.3	-7	-5	-5.0
CN1C(=O)c2cc(NC(=O)Nc3ccccc3Cl)ccc2OC[C@H]2O[C@@H](CC(=O)NCCCN3CCOCC3)CC[C@@H]21	i	0.6	0	8	-1.0
F[B-](F)(F)COCc1ccccc1C#Cc1ccccc1	i	-1.9	-14	-44	-13
COc1ccc(S(=O)(=O)N2CC[C@H]3[C@H](CO)Nc4ccc(-c5ccc(C#N)cc5)cc4[C@H]32)cc1	i	-15	-1	-9	1.7
C[C@@H]1CN([C@@H](C)CO)C(=O)c2cccc(NC(=O)c3nc4ccccc4s3)c2O[C@H]1CN(C)S(=O)(=O)c1cn(C)cn1	i	-3.7	-6	-5	-1.5
COc1ccc(Cl)cc1NC(=O)c1cccc(-n2cnnn2)c1	i	-0.7	18	11	-0.1
C[C@@H]1CN([C@@H](C)CO)C(=O)c2cc(NC(=O)Nc3cccc4ccccc34)ccc2O[C@@H](C)CCCCO[C@@H]1CN(C)C(=O)NC1CCCCC1	i	-3.5	-1	0	-4.6
C[C@H](CO)N1C[C@H](C)[C@H](CN(C)C(=O)Nc2cccc3ccccc23)Oc2ccc(NC(=O)NC3CCCCC3)cc2C1=O	i	-4.3	-1	1	-0.1
CCNC(=O)Nc1ccc2c(c1)C(=O)N(C)[C@@H]1CC[C@H](CC(=O)NC3CCCCC3)O[C@@H]1CO2	i	-2.4	-1	5	-0.3
C/C=C/c1ccc([C@H]2[C@@H](CO)N(CC3CCCC3)C23CN(C(=O)CC)C3)cc1	i	3.2	-3	-25	22
CCCCN1CC(C)(C)[C@H](CC(=O)Nc2ccccc2)C1=O	i	-7.6	6	12	1.6
CC(C)C#Cc1cnc2c(c1)C(=O)N([C@@H](C)CO)C[C@H](C)[C@@H](CN(C)C(=O)Nc1ccccc1)O2	i	-1.8	-3	3	-0.8
CC(C)NC(=O)N(C)C[C@H]1Oc2ccc(NS(=O)(=O)c3cccs3)cc2CC(=O)N([C@@H](C)CO)C[C@@H]1C	i	-3.8	6	0	0.5
C[C@@H]1CN([C@H](C)CO)C(=O)c2cc(NS(=O)(=O)c3ccc(F)cc3)ccc2O[C@@H]1CN(C)S(=O)(=O)c1ccc(F)cc1	i	-2.9	-4	-16	1.7
COc1ccc(CNC(=O)COC(=O)CC(NC(N)=O)c2ccc(Cl)cc2)cc1OC (stereo not given)	i	-0.9	13	7	-1.3
C[C@H](CO)N1C[C@H](C)[C@@H](CN(C)C(=O)Nc2ccc3c(c2)OCO3)Oc2ccc(NC(=O)Nc3cccc4ccccc34)cc2C1=O	i	-6.8	-1	3	2.9
O=C(C[C@@H]1CC[C@H]2[C@@H](COC[C@@H](O)CN2C(=O)c2cc(Cl)cc(Cl)c2)O1)N1CCc2ccccc2C1	i	2.1	-6	7	4.5
C[C@H]1CN([C@@H](C)CO)C(=O)c2cc(NC(=O)Nc3ccc4c(c3)OCO4)ccc2O[C@H]1CN(C)C(=O)Nc1ccc(C(F)(F)F)cc1	i	1.5	-5	-5	-1.4
C[C@]12c3[nH]c4ccc(Cl)cc4c3CCN1C(=O)[C@@H](CC(=O)NCCc1ccccn1)C[C@@H]2C(=O)N1CCOCC1	i	-1.4	-1	-9	5.0
COC(=O)C[C@@H]1CC[C@@H]2[C@H](COc3ccc(NC(=O)C4CC4)cc3C(=O)N2C)O1	i	-0.3	4	2	-2.0

Ordered by value in rRNA inh HTS (high to low): 3 from the list above.
| Compound | rRNA inh HTS |
| --- | --- |
| C[C@@H]1CCCCO[C@@H](CN(C)S(C)(=O)=O)[C@H](C)CN([C@@H](C)CO)C(=O)c2cc(NS(=O)(=O)c3cn(C)cn3)ccc2O1 | 3 |
| C[C@H](CO)N1C[C@H](C)[C@@H](CN(C)C(=O)Nc2ccc3c(c2)OCO3)Oc2ccc(NC(=O)Nc3cccc4ccccc34)cc2C1=O | -1 |
| CC(C)C#Cc1cnc2c(c1)C(=O)N([C@@H](C)CO)C[C@H](C)[C@@H](CN(C)C(=O)Nc1ccccc1)O2 | -3 |

Following part.
Compound	FGF22 binding	MLL AF4-AF9 inh	rRNA inh HTS	rRNA inh HTS OD600	rRNA inh HTS RFP
CCc1ccc(C(O)c2ncc(-c3cccc(C(F)(F)F)c3)[nH]2)cc1 (stereo not given)	i	7.7	-61	-82	-19
O=C(C[C@H]1C[C@@H]2c3cc(NC(=O)CC4CC4)ccc3O[C@@H]2[C@H](CO)O1)NCc1ccc2c(c1)OCO2	i	-3.2	-2	8	-3.0
C[C@@H](O)C#Cc1ccc2c(c1)O[C@@H](CN(C)Cc1ccncc1)[C@@H](C)CN([C@@H](C)CO)S2(=O)=O	i	-1.4	-1	-8	-0.1
C[C@H](CO)N1C[C@H](C)[C@@H](CN(C)S(=O)(=O)c2ccc(F)cc2)OCCCC[C@H](C)Oc2ccc(NC(=O)c3ccccc3)cc2C1=O	i	1.1	0	-6	1.2
CCCC#Cc1cnc2c(c1)C(=O)N([C@@H](C)CO)C[C@@H](C)[C@H](CN(C)C(=O)Cc1ccncc1)O2	i	-0.4	-3	-3	1.1
CCCN1[C@@H]2Cn3c(ccc(-c4cccc(OC)c4)c3=O)[C@H]1[C@@H](C(=O)NCC)[C@@H]2CO	i	-0.8	0	1	-1.0
C[C@@H]1CN([C@@H](C)CO)S(=O)(=O)c2ccc(C#CC3CC3)cc2O[C@@H]1CN(C)C(=O)c1ccncc1	i	1.0	-2	-7	0.0
Cc1ccc(C)c(C(O)c2ncc(-c3cccc(C(F)(F)F)c3)[nH]2)c1 (stereo not given)	i	6.2	-60	-80	-19
CC(C)C#Cc1ccc2c(c1)O[C@H](CN(C)CC1CCOCC1)[C@@H](C)CN([C@H](C)CO)S2(=O)=O	i	6.1	-4	-44	30
C[C@@H]1CCCCO[C@@H](CN(C)C(=O)Cc2ccccc2)[C@@H](C)CN([C@@H](C)CO)C(=O)c2cc(NS(=O)(=O)c3ccc(Cl)cc3)ccc2O1	i	-8.7	0	-6	0.8
CCCNC(=O)C[C@@H]1CC[C@H]2[C@@H](COC[C@H](O)CN2C(=O)c2ccccn2)O1	i	-0.6	3	22	-0.7
C[C@H]1CN([C@@H](C)CO)C(=O)CCCn2cc(nn2)CO[C@H]1CN(C)S(=O)(=O)c1ccccc1F	i	-4.5	-1	-6	1.1
CS(=O)(=O)N1CCCCN2[C@H](CO)[C@@H](c3ccc(Br)cc3)[C@@H]2C1	i	-5.2	0	1	-3.1
O=S1(=O)CCSC[C@@H](CN2CCN(c3ccccc3)CC2)N1	i	-5.4	1	12	-0.4
C[C@H](CO)N1C[C@H](C)[C@@H](CN(C)Cc2ccccc2C(=O)O)Oc2cc(-c3ccc(C(=O)N(C)C)cc3)ccc2S1(=O)=O	i	1.1	4	6	-1.2
Cc1ccc(S(=O)(=O)N(C)C[C@H]2OCCCC[C@H](C)Oc3ccc(NC(=O)CCCN(C)C)cc3C(=O)N([C@H](C)CO)C[C@H]2C)cc1	i	2.1	-3	1	-2.0
CC(=O)N(C)C[C@H]1Oc2cc(-c3ccc(F)cc3)ccc2S(=O)(=O)N([C@@H](C)CO)C[C@H]1C	i	0.0	-4	-1	-2.6
CC(C)NC(=O)N(C)C[C@@H]1Oc2ccc(NC(=O)Cc3cn(C)c4ccccc34)cc2C(=O)N([C@@H](C)CO)C[C@H]1C	i	1.1	3	5	1.4
CCCNC(=O)Nc1ccc2c(c1)C(=O)N(C)C[C@@H](OC)[C@@H](C)CN(C(=O)C1CCC1)[C@@H](C)CO2	i	3.3	3	3	-1.8
O=C(Nc1ccccc1)N1C[C@H]2[C@@H](c3ccccc31)[C@H](CO)N2Cc1ccc(F)cc1	i	-8.5	-5	-4	0.8
O=C(C[C@@H]1CC[C@H]2[C@@H](COC[C@H](O)CN2Cc2ccc(Oc3ccccc3)cc2)O1)Nc1nccs1	i	11	-47	-71	-10
CC(=NNC(=O)CSCC(=O)NN=C(C)c1ccccc1)c1ccccc1	i	-2.2	8	3	-1.5
CC(C)Cn1c(N)c(C(=O)COC(=O)c2cccc(F)c2)c(=O)n(C)c1=O	i	-0.2	-3	0	-0.4
C[C@H](CO)N1C[C@H](C)[C@@H](CN(C)C(=O)c2ccc(F)cc2)Oc2ncc(C3=CCCCC3)cc2C1=O	i	5.6	-3	-8	-0.4
COc1cccc(NC(=O)N(C)C[C@@H]2Oc3ncc(Br)cc3C(=O)N([C@@H](C)CO)C[C@H]2C)c1	i	-1.4&-1.8	5&1	3&6	-5.1&-0.1
COc1ccc(S(=O)(=O)N2CCC[C@H]2C(=O)N2CCC[C@H]2C(=O)N[C@H](C)c2ccccc2)cc1C	i	0.2	-4	-2	4.8
CN1CCN(C(=O)C[C@H]2CC[C@@H]3[C@H](COC[C@@H](O)CN3Cc3cccc(Cl)c3)O2)CC1	i	-0.2	1	2	-3.2
COCC(=O)N1CC[C@H]2[C@H](CO)Nc3ccc(-c4cccc(C#N)c4)cc3[C@H]21	i	-0.3	1	-3	-1.5
C[C@H]1CN([C@@H](C)CO)S(=O)(=O)c2ccc(-c3cccc(F)c3)cc2O[C@H]1CN(C)C(=O)C1CC1	i	-0.3	-12	-12	-0.4
COc1ccc(NC(=O)Nc2cccc3c2O[C@H](CN(C)Cc2ccc(C(F)(F)F)cc2)[C@@H](C)CN([C@@H](C)CO)C3=O)cc1	i	3.6	0	-6	0.5
C[C@@H]1CN([C@H](C)CO)C(=O)c2cc(NC(=O)C3CC3)ccc2O[C@@H]1CN(C)C(=O)Nc1cccc2ccccc12	i	-0.9	1	10	1.8
Cc1ccc(-c2ccc3c(c2)O[C@@H](CN(C)C)[C@H](C)CN([C@H](C)CO)S3(=O)=O)cc1	i	-6.5	1	-4	16
CCCN(C)C[C@@H]1Oc2ncc(-c3cccc(C(F)(F)F)c3)cc2C(=O)N([C@H](C)CO)C[C@@H]1C	i	3.3	5	10	-0.7
COc1ccc2c3c([nH]c2c1)[C@@H](CO)N(Cc1ccccn1)CC31CCN(C(C)=O)CC1	i	-2.8	6	13	0.8
Cc1ccc([C@H]2C[C@H](O)[C@@H](n3cc(C4CC4)nn3)CN2C(=O)c2cccs2)cc1	i	-3.8	-5	-2	-4.3
O=C1CSc2ccc(C(=O)N3CCCCC3)cc2N1	i	-2.5	8	7	1.5
O=C(Nc1cccc(F)c1)N[C@H]1CC[C@@H](CCNS(=O)(=O)c2cccc(Cl)c2)O[C@H]1CO	i	0.3	2	-24	2.1
O=C(C[C@@H]1CC[C@@H](NS(=O)(=O)c2ccc(F)cc2)[C@H](CO)O1)NC1CCCCC1	i	-3.3	-5	-1	-1.7
COc1ccc(N(CC(=O)N2CCN(c3ccccc3)CC2)S(=O)(=O)c2ccccc2)cc1	i	3.0	-12	-19	13
CN(C)C(=O)[C@@H]1[C@@H](CO)[C@@H]2Cn3c(ccc(-c4ccccc4F)c3=O)[C@H]1N2C(=O)c1ccccc1	i	0.3	1	-3	-1.8
COc1cccc(-c2ccc([C@H]3[C@H]4CN(C(=O)NC(C)C)CCCCN4[C@H]3CO)cc2)c1	i	-1.0	-2	-4	1.9
CCC(=O)N[C@@H]1C=C[C@@H](CC(=O)OC)O[C@@H]1CO	i	-0.4	2	2	1.2
O=C(C[C@H]1CC[C@@H]2[C@H](COC[C@@H](O)CN2CCC(F)(F)F)O1)NCC1CCCCC1	i	0.1	-7	7	-3.5
C[C@H]1CN([C@@H](C)CO)C(=O)c2cc(Br)cnc2O[C@@H]1CN(C)S(=O)(=O)c1ccccc1	i	-2.8&-7.3	3&-4	1&0	-2.0&-2.7

2 entries drawn at random from the list so far:
Compound	FGF22 binding	MLL AF4-AF9 inh	rRNA inh HTS	rRNA inh HTS OD600	rRNA inh HTS RFP
O=C(C[C@H]1C[C@@H]2c3cc(NC(=O)CC4CC4)ccc3O[C@@H]2[C@H](CO)O1)NCc1ccc2c(c1)OCO2	i	-3.2	-2	8	-3.0
C/C=C/c1ccc([C@H]2[C@@H](CO)N(CC3CCCC3)C23CN(C(=O)CC)C3)cc1	i	3.2	-3	-25	22

Screening results from PubChem BioAssay.
